# Screening results (PubChem)
# gsp ag: activates gsp, the McCune-Albright syndrome mutation; AID 624287; gsp mutant cells, cAMP HTRF, 30 min; control for the full effect not named in the record; hit rate 0.13% among 340,000; Potency, µM (doses to about 76.9 µM), inactives show top-dose activation (cAMP increase), usual class: activators; active = well fitted activation curve with a large enough effect; inconclusive = small, poorly fitted or top-dose-only effect, or another doubt; inactive = no such curve, though single readings can be large or run the other way; cell line not stated here;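 further: phosphodiesterase inhibitor Ro 20-1724 added with compounds to block cAMP breakdown; potency means the concentration at half of the fitted maximal effect; nearly all actives have a fitted effect of over 60% in size; about a fifth of the inactives were tested at one dose only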
#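 Cells in DMEM/10% FBS with G418 were pretreated with compounds in DMSO plus […] (300 uM stock) for 30 min at 37C. cAMP was measured by HTRF (cAMP-d2 plus anti-cAMP antibody-K) after 30 min at room temperature.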
# Menin-MLL FL inh: inhibitors of human menin-MLL interaction, wild-type MLL peptide. Fluorescence polarization, fluorescein-MLL peptide displacement from menin. FP activity change, % at 61.4 µM. 290,000 tested, under 10 active. AID 1766; inconclusive = falling polarisation curve, or a change in total fluorescence; inactive = total fluorescence flat and polarisation flat or rising; no compound was filed as active; the % refers to the polarisation; negative = inhibition;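 further: % of control where 0% means no effect; inhibitors lower the polarisation; unlabelled MLL peptide was the positive control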
# PINK1 modulator: changes PINK1 expression. AID 624263. Potency, µM (titrated, usually from 76.6 µM), for the others: at the highest dose activation (PINK1 increase), hits mostly activators. PINK1 immunofluorescence, high-content cytometry, 24 h. hit rate 0.2% among 410,000; active = well fitted activation curve with a large enough effect; inconclusive = small, poorly fitted or top-dose-only effect; inactive = flat fitted curve, though single readings scatter; cell line not stated here;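 further: potency means the concentration at half of the fitted maximal effect; % of control where 0% means no effect; nearly all actives have a fitted effect of over 65% in size; a mitochondrial uncoupler was the plate control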
#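 A stable cell line was treated with compounds at 5 concentrations for 24 hours, with CCCP as control. PINK1 levels and mitochondrial localization were measured by immunofluorescence with mitochondrial, cell and nuclear markers after fixation, read by laser-scanning cytometry.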
# ClpP mod: qHTS Assay for Activators of ClpP. ATP-dependent Clp protease proteolytic subunit (Bacillus subtilis (strain 168)), P80244. Potency, µM (top dose mostly 57.5 µM), inactives show at the highest dose activity change, negative = active. purified B. subtilis ClpP, FRET peptide cleavage, 20 min. hit rate 1.9% among 340,000. AID 651965, 2013; active = well fitted falling curve with a large enough effect; inconclusive = small, poorly fitted or top-dose-only effect; inactive = no such curve, though single readings can be large or run the other way; further: potency means the concentration at half of the fitted maximal effect; the source files actives as falling curves though it sought activators and does not explain the sign; nearly all actives have a fitted effect of over 65% in size; many hits overshoot -100%
# Target sequence (P80244 whole entry, looked up): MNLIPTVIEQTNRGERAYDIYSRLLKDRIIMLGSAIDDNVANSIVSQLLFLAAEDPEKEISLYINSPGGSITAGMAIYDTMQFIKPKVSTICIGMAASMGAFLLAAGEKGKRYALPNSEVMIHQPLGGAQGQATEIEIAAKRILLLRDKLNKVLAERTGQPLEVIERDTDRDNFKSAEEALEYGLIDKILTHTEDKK
#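 FRET quenching reversal measured ClpP activation: 10 microg/mL B. subtilis ClpP at pH 8 with the FRET-FV decapeptide, read at 430 nm after 320 nm excitation. The 20-min minus 0-min signal was scaled between DMSO/no-enzyme wells and ADEP (5.8 microM final).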
# D2 agonist: agonists of human D2 dopamine receptor (beta-arrestin); hit rate 0.084% among 360,000; activation, % (test concentration not listed); DiscoveRx PathHunter D2 beta-arrestin, luminescence, 90 min; 100% = 57 uM dopamine signal; P14416; in the data active = activation above about 40%; inconclusive = about 15% to 40%; inactive = below about 15%; further: compound concentration not given in the record; the text of the record calls up to 30% inactive
# Target sequence (P14416 whole entry, looked up): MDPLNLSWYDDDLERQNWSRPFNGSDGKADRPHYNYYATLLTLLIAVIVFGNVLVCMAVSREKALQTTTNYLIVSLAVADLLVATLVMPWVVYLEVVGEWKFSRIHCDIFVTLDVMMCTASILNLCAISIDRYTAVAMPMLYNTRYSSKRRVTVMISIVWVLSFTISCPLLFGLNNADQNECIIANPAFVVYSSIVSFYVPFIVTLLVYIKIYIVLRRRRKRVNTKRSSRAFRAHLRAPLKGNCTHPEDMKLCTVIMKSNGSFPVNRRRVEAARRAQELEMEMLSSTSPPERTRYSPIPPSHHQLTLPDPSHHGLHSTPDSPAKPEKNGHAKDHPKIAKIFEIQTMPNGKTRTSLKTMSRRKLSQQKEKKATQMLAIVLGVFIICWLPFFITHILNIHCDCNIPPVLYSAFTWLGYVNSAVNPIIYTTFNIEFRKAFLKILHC
#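 DiscoveRx PathHunter D2 beta-arrestin cells (2,100/well) attached overnight, then compound-stimulated 90 min at 37 C in HBSS/10 mM HEPES/0.1% Tween-20 buffer; beta-galactosidase complementation read by luminescence after 1 h at ambient temperature. Dopamine 57 uM final (EC100) as control.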
# gsp antag: gsp mutant antagonism. hit rate 0.4% among 340,000. Potency, µM (highest dose often 76.9 µM), for the others: at the top dose activity change, negative = inhibition, hits mostly inhibitors. AID 624288. gsp-mutant cells, cAMP HTRF, 30 min; control for the full effect not named in the record; active = falling curve of any shape with a large fitted effect; inconclusive = falling curve, mostly with a smaller effect; inactive = flat or rising curve; cell line not stated here;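 further: intracellular cAMP measured with PDE inhibitor Ro 20-1724 present during compound exposure; potency means the concentration at half of the fitted maximal effect; on the % scale 0 is the no-effect control and ±100 the full control effect; nearly all actives have a fitted effect of over 65% in size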
#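 HTRF cAMP measurement after 30 min RT detection following 30 min, 37C compound treatment alongside […] (added as 300 uM solution) in G418-selected cells seeded at 2000/well and grown 16–24 h.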
# Sfp inh: blocks B. subtilis Sfp PPTase activity | AID 1490 | Biochemical Sfp PPTase activity, qHTS | Potency, µM, for the others: max response, negative = inhibition, actives largely listed as inhibitors | Q9F4F7 | hit rate 3.5% among 310,000; active means well fitted inhibition curve with a large enough effect; inconclusive means small, poorly fitted or top-dose-only effect, or another doubt; inactive means no such curve, though single readings can be large or run the other way;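 further: the enzyme is Sfp with the accession as filed and its product quenches rhodamine fluorescence; potency means the concentration at half of the fitted maximal effect; 0% = enzyme reaction without inhibitor and -100% = no enzyme wells; top concentration of the series not given in the record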
#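 Fluorescence-quenching assay with 15 nM Sfp, 5 uM rhodamine-CoA and 12.5 uM BHQ-2-labelled ybbR peptide in pH 7.6 Hepes/MgCl2 buffer. Enzyme was pre-incubated with compound for 15 min at room temperature. Rate was taken from the 30-min fluorescence change (525/598 nm).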
# An asterisk follows results filed as active; ? = inconclusive; · = not tested or not shown; & = joins results of further samples; ! = repeats disagree; [ ] = another dose, or the depositor's remark.
SMILES,gsp ag,Menin-MLL FL inh,PINK1 modulator,ClpP mod,D2 agonist,gsp antag,Sfp inh
CC(C)C(NS(=O)(=O)c1cccs1)C(=O)N1CCC(C(N)=O)CC1 (centres undefined),0.2%,·,-0.1%,-11.9%,1.9,11.8%,·
CC(Sc1ccccc1)C(=O)Nc1ccc(S(=O)(=O)N2CCOCC2)cc1 (centres undefined),15.6%,-0.2,0.2%,-0.6%,-3.1,8.8%,13.1%
CC(C)[C@H](NC(=O)Nc1ccccc1F)C(=O)O,4.4%,0.1,2.3%,0.0%,-3.3,7.3%,0.0%
CC(=O)N1CC(C)Sc2ccc(S(=O)(=O)NCCc3ccccc3)cc21 (centres undefined),-24.4%,·,5.5%,0.0%,3.0,3.6%,1.6%
N#C/C(=C\c1ccc(O)c([N+](=O)[O-])c1)c1nc2ccccc2s1,-1.3%[15.4 µM],19.6,?,·,-6.3,35.5µM*,-24.7%
O=[N+]([O-])c1ccccc1/C=C/CN1CCCCC1CO (centres undefined),-6.1%,0.1,-0.3%,-0.6%,-5.8,0.7%,15.4%
COc1ccc(C(=O)Nc2c(-c3ccccc3)nc3ccccn23)c(OC)c1,0.4%,5.1,1.0%,0.1%,-6.2,-21.5%,3.4%
Cc1ccc(S(=O)(=O)c2cc(Nc3ccccc3)ccc2O)cc1,-13.4%,·,2.1%,-13.6%,3.2,-3.1%,·
C=CC[C@H](CC(=O)NCCO)C(=O)N[C@H](C)COC(=O)[C@@H](CC=C)Cc1ccc(F)cc1,7.9%,·,0.3%,2.1%,2.6,3.0%,·
CC(C)CN(C(=O)CN(C)C(=O)c1ccco1)c1c(N)n(CC(C)C)c(=O)[nH]c1=O,14.3%,·,0.7%,-1.9%,-3.6,8.6%,·
CCn1cc(C(=O)N[C@@H](CCSC)C(=O)NCCOC)c(=O)c2cc3c(cc21)OCO3,-23.3%,-0.4,8.3%,3.9%,0.3,9.9%,10.1%
COC(=O)c1ccccc1NC(=O)C1(S(=O)(=O)c2ccc(Cl)cc2)CC1,-21.7%,-2.1,0.2%,·,-4.7,-15.3%,-2.1%
O=C(Cc1c(F)cccc1Cl)NNC(=O)c1ccccc1Cl,?,·,-0.4%,-0.5%,-1.3,6.4%,·
Cc1cc(-c2[nH]nc3c2C(c2cccc(O)c2)C(C#N)=C(N)O3)c(C)s1 (centres undefined),-2.4%,3.1,1.0%[38.3 µM],-2.7%,-1.3,10.1%,3.9%
Cc1sc2ncnc(N(C)C3CCCCC3)c2c1C,-10.1%[15.4 µM],-4.2,6.5%,·,-2.8,3.3%,?
CCN(CC)CCC(c1ccc(N(C)C)cc1)c1c(O)cc(OC)cc1OC (centres undefined),·,-3.2&2.1,-0.3%,-0.8%,1.4,-6.4%,-7.2%&-1.6%
CN(c1ccc(C(=O)Nc2cccnc2)cc1)S(=O)(=O)c1ccccc1,8.4%[15.4 µM],-0.5,0.8%,·,-0.3,·,16.2%
CCOc1cc(CN2CCCC(CNC(=O)c3ccc(F)cc3)C2)ccc1OC (centres undefined),-16.2%,6.9,0.4%,-0.8%,-5.3,18.5%,18.3%
CCOc1cc(C(=O)NCC(=O)N2CCC3(CC2)NCCc2[nH]cnc23)cc(OCC)c1OCC,-2.7%,·,-0.4%,-0.2%,-6.4,5.3%,7.2%
CSc1ccccc1C(=O)N1CCOCC1,-60.9%[inhibitor],1.5,2.7%,-0.7%,-3.5,5.2%,28.9%
CN(C)c1ccc(NC(=O)CN2CCC(N3CCCCC3)CC2)cc1,-0.1%,-1.3,-1.7%,-0.1%,-0.4,-18.0%,89.1µM*
COc1ccc(S(=O)(=O)N2CCC(C(=O)N3CCOCC3)CC2)cc1,9.6%,-1.0,1.9%,-1.1%,0.4,11.5%,8.9%
Cc1ccc(CSC2=NCCN2C(=O)C(C)Oc2ccccc2)cc1 (centres undefined),-15.8%[15.4 µM],-0.2,0.0%,·,-7.1,17.9%,9.4%
COc1ccc(OC)c(-c2csc(N(CC3CCCO3)C(=O)Cc3ccccc3)n2)c1 (centres undefined),-6.2%,-5.2,-1.0%,-7.8%,-8.8,-15.0%,4.8%
CCOC(=O)/C(C#N)=C/Nc1cc(C(=O)OCC)cc2c(OC)c(OC)ccc12,-20.4%[15.4 µM],1.2,1.4%,·,0.1,0.4%,0.6%
O=C(Nc1ccc(O)c2c(=O)cc(-c3ccccc3Cl)oc12)c1ccc(Cl)c(Cl)c1,8.6%,-3.4&5.7,1.1%,0.9%,-1.6,6.6%,79.4µM*!
C[C@]12c3[nH]c4ccccc4c3CCN1C(=O)C(CC(=O)NCCc1ccccn1)C[C@@H]2C(=O)N1CCCCC1 (some centres undefined),·,·,0.1%,-1.5%,-2.2,1.9%,·
COc1ccc(-c2ccc3c(c2)S(=O)(=O)c2cccc(C(=O)O)c2C3=O)cc1OC,-8.8%,·,0.5%,-3.0%,-2.5,-1.6%,·
CC(C)CC(=O)NCc1ccc(F)cc1,-52.3%[inhibitor],0.5,-0.2%,-1.8%,-3.4,-1.2%,22.4%
Cc1ncc([N+](=O)[O-])n1CCOC(=O)NC(NCc1ccccc1Cl)C(Cl)(Cl)Cl (centres undefined),16.0%,8.1,0.9%,-14.5%,1.6,-24.8%,3.8%
O=C(c1cccs1)c1coc2ccc(O)c(CN3CCOCC3)c12,6.8%,0.3,-1.3%,-3.1%,1.9,-11.1%,14.8%
COc1cccc(OCC(O)CN2CCN(C(c3ccccc3)c3ccccc3)CC2)c1 (centres undefined),6.5%,·,?,0.9%,2.1,-16.6%,·
Cc1ccnc2nc(C(=O)OCC(=O)c3ccc(Cl)cc3)nn12,-34.1%[inhibitor],·,1.4%,0.1%,-4.7,7.2%,·
N#Cc1ccccc1NC(=O)Nc1ccc(Cl)cc1,-5.9%,-0.7,1.2%,?,-2.8,9.9%,9.7%
CS(=O)(=O)N(CC(=O)N1CCN(Cc2ccccc2)CC1)c1ccccc1F,-3.5%,-4.1,1.1%,·,-0.7,6.9%,22.7%
CN(Cc1ccccc1)S(=O)(=O)c1ccc2[nH]c(=O)oc2c1,-1.3%,0.2,-0.4%,-0.9%,2.9,-19.4%,0.1%
C=CCN(C(=O)c1ccccc1)C1CCS(=O)(=O)C1 (centres undefined),?,2.2,4.8%,·,6.9,2.1%,24.5%
CC(C)C(=O)N1CCC1(C)C(=O)NCc1ccc(C(C)(C)C)cc1 (centres undefined),·,·,0.6%,-1.0%,-6.9,·,·
CC(C)c1nc(SCC(=O)N2CC(=O)Nc3ccccc32)c2ccccc2n1,5.6%[15.4 µM],-1.0,2.3%,-0.4%,-0.3,-43.1%,8.1%
CCOC1=C2[C@H](c3ccc(CC)cc3)N(S(=O)(=O)c3ccc(C)cc3)C[C@H]2n2c(=O)n(-c3ccccc3)c(=O)n2C1,·,·,-0.2%,-2.6%,-5.9,·,·
CCOC(=O)C1CCN(C(=O)c2cc3c(=O)n4ccccc4nc3n2C)CC1,19.5%[15.4 µM],4.6,2.0%,·,4.6,13.1%,10.4%
COc1ccc([N+](=O)[O-])cc1N(CC(O)CN1CCCCC1)S(=O)(=O)c1ccc(C)cc1 (centres undefined),-0.3%[15.4 µM],2.1,-0.1%,·,-0.8,5.9%,-0.8%
COc1ccc(C(=O)Nc2cc3c4c(c2)C(C)C(=O)N4CCC3)cc1OC (centres undefined),-52.8%[inhibitor],·,6.1%,-1.9%,-1.7,9.8%,·
CSc1ccc(CN2C(=O)NC3(CCCCC3)C2=O)cc1,-14.6%[15.4 µM],2.2,1.7%,·,-23.4,-0.7%,7.6%
CN(Cc1ccccc1)c1nc2c(c(=O)[nH]c(=O)n2C)n1CCCSc1ncccn1,10.9%,0.9,-2.3%,-0.6%,-1.2,2.8%,-5.2%
COc1cc(NC(=O)C2CCN(S(=O)(=O)c3ccc4c(c3)CC(C)N4C(C)=O)CC2)cc(OC)c1OC (centres undefined),-40.1%[inhibitor],·,-0.1%,-0.4%,-0.2,-0.7%,14.4%
COc1ccc([C@@H]2CC=C(C(=O)O)[C@H](c3ccccc3)N2S(=O)(=O)c2ccccc2C)cc1,19.1%,·,1.6%,-1.1%,-4.8,?,·
CSCC[C@H](NC(=O)OC(C)(C)C)c1nnc(SCc2ccccc2)o1,-14.0%,-4.0,-1.9%,-20.9%,1.4,8.5%,5.7%
CCOc1cccc(-c2cc(N3CCN(CCO)CC3)n3nccc3n2)c1,·,·,2.2%,4.1%,-5.2,·,·
CCN1CCCC1CNC(=O)C(=O)NC1CC1 (centres undefined),0.4%[15.4 µM],11.5,0.6%,·,-5.1,11.3%,6.1%
COc1cccc(OCc2nnc3n2N=C(c2ccccc2)C(CC(=O)O)S3)c1 (centres undefined),19.9%[15.4 µM],-0.8,-0.9%,·,-1.3,-7.9%,13.2%
CC1CCN(CC(=O)N2CCN(c3ccccc3)CC2)CC1,?,-5.2,0.9%,·,0.6,6.5%,11.4%
CCN(CC)C(=O)Cn1cc(C(=O)C(=O)NCc2cccnc2)c2ccccc21,3.2%,5.3,-1.3%,0.3%,-2.0,-7.1%,6.2%
Nc1cccc(OCCCCCOc2cccc(N)c2)c1,-5.5%,·,2.9%,1.2%,-2.4,·,·
O=C(CN1CCC(NC(=O)Nc2ccc(F)cc2)CC1)Nc1ccccc1[N+](=O)[O-],-0.7%,4.7,-0.9%,·,-0.7,-24.7%,9.0%
Cc1nc(SCc2ccc([N+](=O)[O-])cc2)n[nH]1,-24.2%,-0.2,1.6%,·,-2.9,0.6%,24.5%
COC(=O)c1cc(OC)c(OC)cc1NC(=O)CSc1ccc(C)cc1,-0.2%,1.6,3.3%[38.3 µM],-20.1%,1.6,-18.4%,-1.1%
CSc1nnc2sc3cc(C)ccc3n12,-3.8%,·,1.0%,-4.1%,-6.2,·,·
